Screens from PubChem.
Cruzain Triton: inhibitors of Trypanosoma cruzi cruzain with detergent; AID 1478; 200,000 tested, 0.43% active; P25779; Potency, µM, inactives show max response, negative = inhibition, usual class: inhibitors; purified cruzain, Z-FR-AMC fluorescence, 0.01% Triton;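 note: plate controls were neutral wells for no effect and buffer without enzyme for full effect; nearly all actives have a fitted effect of over 40% in size; top concentration of the series not given in the record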
Target sequence (P25779 123-467 limits assumed): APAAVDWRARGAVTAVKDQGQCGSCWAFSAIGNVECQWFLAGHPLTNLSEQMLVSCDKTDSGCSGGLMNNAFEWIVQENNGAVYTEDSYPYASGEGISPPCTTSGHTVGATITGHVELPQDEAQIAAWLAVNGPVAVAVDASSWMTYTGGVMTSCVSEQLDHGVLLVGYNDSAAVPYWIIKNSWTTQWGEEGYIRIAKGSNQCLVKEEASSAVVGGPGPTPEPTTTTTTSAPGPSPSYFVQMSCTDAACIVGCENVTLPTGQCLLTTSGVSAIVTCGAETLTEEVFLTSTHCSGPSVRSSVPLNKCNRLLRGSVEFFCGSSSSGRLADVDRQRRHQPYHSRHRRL
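Cysteine protease activity tested under reducing, mildly acidic conditions (100 mM sodium acetate pH 5.5, 5 mM DTT) plus 0.01% Triton X-100. Cruzain 1.5 nM; substrate Z-FR-AMC 2 uM; 15 min compound preincubation at room temperature.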
NS1 function inh: influenza NS1 inhibition; S. cerevisiae slowed by influenza A NS1, growth recovery by OD600; Potency, µM (highest dose often 46.1 µM), for inactives: at the highest dose activity, positive = more growth; 270,000 tested, 0.4% active; active means well fitted rising curve with a large enough effect; inconclusive means small, poorly fitted or top-dose-only effect; inactive means no such curve, though single readings can be large or run the other way; note: nearly all actives have a fitted effect of over 50% in size
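OD600 was taken as the measure of yeast growth restored by compound in an NS1-expressing S. cerevisiae strain. Cells had been washed out of glucose medium and diluted 1:100 into galactose -URA medium, pH 6.0.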
RE007 growth inh: less growth of the S. pombe RE007 Vpr strain. S. pombe RE007 Vpr strain, BacTiter-Glo ATP luminescence, 24 h; control for the full effect not named in the record. Potency, µM (top dose mostly 92.2 µM), inactives show top-dose activity change, negative = less growth. 360,000 tested, 0.21% active; active = well fitted falling curve with a large enough effect; inconclusive = small, poorly fitted or top-dose-only effect; inactive = no such curve, though single readings can be large or run the other way;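 note: % is set by controls: 0 for no effect and ±100 for the full control effect; nearly all actives have a fitted effect of over 50% in size; the assay follows cell death caused by Vpr and the record does not say whether a fall means rescue or toxicity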
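Fission yeast strain RE007, carrying one chromosomally integrated HIV-1 vpr copy, was seeded at OD 0.01 in PMG+AL medium with 23 nL pinned compound. After 24 h at 30 °C and 99% humidity, viability was read by BacTiter-Glo luminescence.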
2A StopGo: FMDV 2A StopGo reporter, luciferase signal | human cells with a luciferase reporter of 2A StopGo recoding; control for the full effect not named in the record | Potency, µM (highest dose often 57.9 µM), without a hit: at the top dose signal change, negative = less light | 410,000 tested, 1.2% active | AID 1159524; active = well fitted falling curve with a large enough effect; inconclusive = small, poorly fitted or top-dose-only effect; inactive = no such curve, though single readings can be large or run the other way; tested in HEK293T cells; note: % is set by controls: 0 for no effect and ±100 for the full control effect; nearly all actives have a fitted effect of over 45% in size; luciferase light after 4 h
Cruzain inh noDet: blocks cruzain activity in detergent-free assay; Potency, µM, inactives show max response, negative = inhibition, actives largely listed as inhibitors; 200,000 tested, 2.3% active; AID 1476; P25779; purified cruzain, Z-FR-AMC fluorescence, no detergent;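 note: plate controls were enzyme without inhibitor for no effect and buffer without enzyme for full effect; nearly all actives have a fitted effect of over 40% in size; top concentration of the series not given in the record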
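Detergent-free condition (0.00005% Triton X-100) in acetate buffer pH 5.5 with DTT. 1.5 nM enzyme and compound were pre-mixed 15 min, then 2 uM Z-FR-AMC substrate added; reaction progress from fluorescence change between first and third reads (60 s).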
Marburg entry inh: Marburg virus entry inhibition; Marburg virus pseudotyped entry inhibition, cell reporter; control for the full effect not named in the record; about a third of the inactives were read at about 46 µM; Potency, µM (series often up to 37.8 µM), for inactives: at the highest dose activity change, negative = inhibition, most hits filed as inhibitors; 300,000 tested, 1.8% active; active = well fitted inhibition curve with a large enough effect; inconclusive = small, poorly fitted or top-dose-only effect, or effect the other way; inactive = flat fitted curve, though single readings scatter; tested in HEK293 cells; about a fifth of its hits are not listed in these tables; note: % is set by controls: 0 for no effect and ±100 for the full control effect; luciferase read-out
SARS PLpro yeast: SARS-CoV PLP inhibition in yeast. Potency, µM (series often up to 32.9 µM), inactives show at the highest dose activity, positive = growth rescue. 330,000 tested, 0.19% active. S. cerevisiae expressing SARS-CoV PLpro, growth rescue; control for the full effect not named in the record; active means well fitted rising curve with a large enough effect; inconclusive means small, poorly fitted or top-dose-only effect; inactive means no such curve, though single readings can be large or run the other way; note: 0% is about no effect; nearly all actives have a fitted effect of over 55% in size; growth read by luminescence after 48 h
LASV entry inh: inhibitors of Lassa virus binding or cell entry; Lassa virus pseudotype entry inhibition, cell reporter; control for the full effect not named in the record; AID 540256; 300,000 tested, 1.2% active; Potency, µM (titrated, usually from 37.9 µM), without a hit: at the top dose activity change, negative = inhibition, most hits filed as inhibitors; active means well fitted inhibition curve with a large enough effect; inconclusive means small, poorly fitted or top-dose-only effect, or effect the other way; inactive means flat fitted curve, though single readings scatter; tested in HEK293 cells; note: % is set by controls: 0 for no effect and ±100 for the full control effect; nearly all actives have a fitted effect of over 50% in size; luciferase read-out
Starred values were filed as active, the others as inactive; ? = inconclusive; nt = not tested or not shown; & = joins results of further samples; [ ] = remark or other dose. Unless noted, calls come from the whole dose curve; as a rule, active = well fitted curve in the direction sought with a large enough effect; inconclusive = small, poorly fitted or top-dose-only effect, or another doubt; inactive = no such curve, though single readings can be large; an effect the other way counts as inactive or inconclusive. Potency is the fitted concentration of half-maximal effect.

Molecule | Cruzain Triton | NS1 function inh | RE007 growth inh | 2A StopGo | Cruzain inh noDet | Marburg entry inh | SARS PLpro yeast | LASV entry inh
COc1ccc(OC)c2c1sc(=NC(=O)c1ccco1)n2C | -13% | -12% | 7% | -23% | 26% | nt | -1% | nt
CCc1nnc(SCC(=O)Nc2ccc(NC(C)=O)cc2)n1-n1cccc1 | nt | nt | 2% | -9% | nt | 3%[46.1 µM] | 4% | 14%
Oc1ccc(N2Cc3ccccc3C2)cc1 | nt | ? | -8% | 22% | nt | ? | 0% | ?
COc1ccc2cc3cc(C(=O)NCCc4ccc(OC)c(OC)c4)oc3nc2c1 | -16% | -35% | 7% | 8.9µM* | ? | ? | -1% | ?
CC(C)N1CCN(Cc2ccoc2)CC1CCO (stereo not drawn) | nt | 5% | 9% | 1% | nt | -1%[46.1 µM] | -1% | 20%[46.1 µM]
COc1ccc(Br)c(OC)c1C(=O)NC(=O)Nc1c(F)cccc1F | nt | 3% | -6% | -17% | nt | nt | 0% | nt
COc1ccc(-c2noc(CN3CCCCC3)n2)cc1OC | 0.5% | 1% | 16% | 43%[activator] | -2% | 16% | 2% | 1%
CCOC(=O)Cc1csc(NC(NC(=O)CC)(C(F)(F)F)C(F)(F)F)n1 | 6.6% | -9% | -8% | -9% | -5% | 0% | 3% | ?
COc1ccc(C2CC(c3ccc(Br)cc3)=NN2C(=O)CCC(=O)O)cc1OC (stereo not drawn) | nt | 29% | 60% | -9% | nt | -6%[46.1 µM] | 6% | -20%[46.1 µM]
CC(CCc1ccccc1)NC(=O)C1CCN(S(=O)(=O)N2CCOCC2)CC1 (stereo not drawn) | 0.1% | -2% | 33% | -25% | -3% | ? | 10% | 2%
COC1CCCCC1Nc1cccc(SC)c1 (stereo not drawn) | 2.0% | ? | -7% | nt | -13% | -3% | -3% | -17%
CC(C)NC(=O)NC(=O)COC(=O)c1cc(S(=O)(=O)N2CCCCC2)ccc1N1CCOCC1 | nt | 5% | -1% | -4% | nt | nt | 11% | nt
Cc1cccc(C(=O)NC(NCc2ccco2)C(Cl)(Cl)Cl)c1 (stereo not drawn) | 5.3% | -14% | 8% | -20% | -5% | -2% | -7% | -3%
O=C(C(=O)N1CCCc2ccccc21)c1c[nH]c2ccccc12 | -6.5% | -9% | -15% | nt | -17% | -10% | 0% | -1%
CCn1c(SCc2ccccc2)nnc1-c1nonc1NC(C)=O | -2.4% | nt | nt | ? | 20% | -6%[46.1 µM] | nt | -4%[46.1 µM]
CCOc1ccc2nc(NC(=O)CN3C(=O)C4CCCCC4C3=O)sc2c1 (stereo not drawn) | nt | nt | 3% | 23% | nt | 19%[46.1 µM] | 1% | -22%
CCCCCCC(=O)N/N=C/c1ccco1 | -2.8% | 4% | nt | 6% | 5% | ? | -45% | 0%
O=C(Nc1ccc(-c2nc3ncccc3o2)cc1)c1ccco1 | ? | -69% | -22% | 40%[activator] | -16% | 19% | -4% | -5%
COc1c(N2CCNC(C)C2)c(F)cc2c(=O)c(C(=O)O)cn(C3CC3)c12 (stereo not drawn) | -11% | 2% | nt | ? | ? | nt | nt | nt
CCOc1ccc(CN(CCO)CCO)cc1[N+](=O)[O-] | -0.7% | 16% | 9% | -12% | 2% | 9% | -2% | 5%
N#C/C(=C/c1ccc(O)cc1)C(=O)NCc1ccc(Cl)cc1 | nt | 10% | -1% | 10% | nt | 14%[46.1 µM] | -6% | nt
O=C(CS(=O)(=O)c1cccc(C(F)(F)F)c1)Nc1ccccc1Cl | 0.8% | -5% | 5% | 0% | 6% | -12% | -3% | ?
CCOc1ccc(N2CC(C(=O)Nc3cc(Cl)ccc3-n3cncn3)CC2=O)cc1 (stereo not drawn) | nt | nt | -13% | -16% | nt | 11% | -1% | 20%
Cc1ccc(S(=O)(=O)Nc2nc3n(n2)C(c2ccccc2Cl)C=C(c2ccccc2)N3)cc1 (stereo not drawn) | -3.2% | nt | nt | 0% | ? | ? | nt | 9%[46.1 µM]
CCN1CCN(C(=O)C2CC(=O)N(c3ccc(Cl)cc3)C2)CC1 (stereo not drawn) | nt | -6% | 3% | -4% | nt | 9%[46.1 µM] | 5% | 2%[46.1 µM]
CCOc1ccccc1NC(=O)C(C)Sc1nc(-c2ccccc2)c(C#N)c(=O)[nH]1 (stereo not drawn) | -12% | nt | nt | -9% | 29% | 16%[46.1 µM] | nt | 0%[46.1 µM]
COc1ccc(CCNc2ccc(C(CC(N)=O)NC(=O)Cc3ccc(Br)cc3)cc2[N+](=O)[O-])cc1 (stereo not drawn) | nt | 4% | -1% | 0% | nt | nt | -1% | nt
COC(=O)/C(C#N)=C/c1c(Oc2cc(C)cc(C)c2)nc2ccccn2c1=O | nt | 5% | 35% | -17% | nt | nt | -1% | nt
CCCCn1c(=N)c(C(=O)NC2CCCCC2)cc2c(=O)n3cccc(C)c3nc21 | -1.0% | nt | nt | -24% | 18% | 25%[46.1 µM] | nt | -9%[46.1 µM]
Cc1ccccc1S(=O)Cc1ccc(C(=O)NCCCN2CCCCC2)o1 (stereo not drawn) | nt | 0% | 13% | 8% | nt | nt | -1% | nt
COc1ccc(N(CC(=O)NCC2CCCO2)C(=O)CCC(=O)Nc2nccs2)cc1 (stereo not drawn) | nt | nt | -13% | 1% | nt | 16% | nt | ?
COc1ccc(NC(=O)CCC(=O)c2cccs2)cc1S(=O)(=O)Nc1ccccc1Cl | -1.9% | ? | 14% | -7% | ? | ? | 20% | ?
O=S(=O)(Cc1ccccc1Cl)N1CCN(Cc2ccc3c(c2)OCO3)CC1 | -16% | -19% | 12% | nt | -26% | -17%&2% | -10% | -3%
N#Cc1ccc(COC(=O)CN2C(=O)NC3(CCCC3)C2=O)cc1 | nt | nt | 0% | -17% | nt | 12% | -5% | 8%
Cc1ccc(NC(=O)CCC(=O)NNC(=O)CCc2ccccc2)c(C)c1 | nt | 8% | 2% | -5% | nt | ? | -1% | 12%
CN1CCN(C(=O)CCN2C(=O)/C(=C\c3ccc(F)cc3)SC2=S)CC1 | nt | nt | -19% | ? | nt | 1% | -4% | ?
CC(=O)Nc1ccc(-c2csc(Nc3ncccn3)n2)cc1 | nt | 6% | 15% | 67%[activator] | nt | nt | 0% | nt
O=C(O)c1cccc(S(=O)(=O)Nc2cccc(S(=O)(=O)N3CCCCCC3)c2)c1 | nt | nt | 8% | -12% | nt | -25% | 1% | 0%
CC(C)C[C@H](NC(=O)c1[nH]cnc1C(=O)N[C@@H](Cc1ccccc1)C(=O)OC(C)(C)C)C(=O)OCc1ccccc1 | nt | ? | -3% | 0% | nt | nt | 4% | nt
CCSc1nnc2c(n1)OC(c1ccc(OC)cc1OC)N(C(C)=O)c1ccccc1-2 (stereo not drawn) | -1.2% | nt | nt | 6% | 6% | -7%[46.1 µM] | nt | -27%[46.1 µM]
CCCS(=O)(=O)Nc1cc(-c2cn3cccc(C)c3n2)ccc1C | 0.4% | nt | nt | 0% | 0% | 18%[46.1 µM] | nt | 12%[46.1 µM]
O=C(COC(=O)c1ccc([N+](=O)[O-])o1)Nc1cccc2ccccc12 | nt | 5% | -13% | -11% | nt | ? | -5% | ?
CCOC(=O)c1ccc(NC(=O)c2ccco2)cc1 | nt | -56% | ? | 68%[activator] | nt | nt | -13% | nt
Cc1ccc(NC(=S)NCCC(c2ccccc2)c2ccccc2)c(C)c1 | 4.3% | 21% | 8% | 10% | ? | ? | -14% | ?
COc1ccc(OC)c(C(C)NC(=O)C23CC4CC(CC(C4)C2)C3)c1 (stereo not drawn) | nt | -18% | 9% | -15% | nt | nt | 1% | nt
C=CCNC(=S)N/N=C/c1ccc(N(CC)Cc2ccccc2)cc1 | -4.2% | ? | nt | ? | -25% | 12µM* | ? | 16µM*
COc1ccc(C2C(C#N)=C(N)Oc3c2sc2nc(C)cc(C)c32)cc1 (stereo not drawn) | -2.1% | 2% | -1% | 40µM* | 13% | ? | 10% | ?
CN(C)CCCN(Cc1ccccc1)C(=S)Nc1ccc(OC(F)F)cc1 | -1.1% | -5% | -5% | -3% | -5% | ? | -8% | -16%
CC(C)NC(=O)C(=O)Nc1ccc2c(c1)N(S(=O)(=O)c1cccs1)CCC2 | nt | nt | 2% | -1% | nt | -20% | 1% | ?
CCN1C(=O)/C(=C\N(C(C)=O)c2ccccc2)OC1=S | 0.0% | -16% | 1% | -21% | ? | 17% | -58% | -12%

(listing goes on)
Molecule | Cruzain Triton | NS1 function inh | RE007 growth inh | 2A StopGo | Cruzain inh noDet | Marburg entry inh | SARS PLpro yeast | LASV entry inh
CCOC(=O)c1nc(S(C)(=O)=O)ncc1Cl | 2.6% | -41% | -1% | nt | 0% | ? | -23% | -34%
O=C(Cn1cc(C(F)(F)F)cc(Cl)c1=O)NCc1ccc(Cl)cc1 | nt | 17% | 0% | 20% | nt | 3%[46.1 µM] | 1% | 0%
Cc1cc(C)nc(NN=CC2=C(N3CCOCC3)/C(=C/c3ccc(Cl)cc3)CC2)n1 | nt | nt | -4% | 27% | nt | -16%[46.1 µM] | nt | 13%[46.1 µM]
CCC(=O)Nc1nnc(SCC(=O)Nc2ccc3c(c2)OCCO3)s1 | nt | 27% | -8% | -7% | nt | -1% | 1% | 13%
Cc1[nH]ccc(=O)c1OCc1ccccc1 | 2.1% | 6% | -3% | 9% | -8% | 3% | -1% | -2%
O=C(O)CC1(CC(=O)N2CCC(C(=O)O)CC2)CCCC1 | nt | 1% | -12% | -7% | nt | 3%[46.1 µM] | 1% | 13%[46.1 µM]
CCOC(=O)NC1(C(F)(F)F)C(=O)N(Cc2ccccn2)C2=C1C(=O)CC(C)(C)C2 (stereo not drawn) | 2.1% | 2% | 0% | 11% | -7% | -6% | 7% | 8%
O=C(c1cccs1)N1CCC(c2nc3c(nnn3Cc3ccccc3)c(=O)[nH]2)CC1 | 4.6% | 6% | -16% | 15% | 1% | -2% | 5% | ?
CCc1nnc(NC(=O)CSc2ccc(-c3nc4ccccc4[nH]3)cn2)s1 | 0.8% | 0% | -1% | nt | -11% | 25% | -3% | ?
O=C(Nc1ccccc1)NC1CC2CCC(C1)N2 (stereo not drawn) | -0.9% | -3% | -20% | -14% | 2% | 1% | -8% | 1%
